# Screening data: PubChem BioAssay, National Center for Advancing Translational Sciences (NCATS)
# D2 potentiator: Beta-Arrestin HTS for Positive Allosteric Modulators of the Human D2 Dopamine Receptor: Potentiators; D(2) dopamine receptor (Homo sapiens), P14416; DiscoveRx D2 beta-arrestin cells, luminescence, 90 min; 100% = 57 uM dopamine signal; potentiation, % (concentration not given with the values); hit rate 0.23% among 360,000; AID 624464, 2012; active = potentiation of 50% or more; inconclusive = 30% to 50%; inactive = 30% or less;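 also: compound concentration not given in the record; tested on top of an EC20 dose of dopamine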
#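 PathHunter D2 cells, attached overnight at 37 deg C, received compound in DMSO plus dopamine at EC20 (50 nM final) for 90 min at 37 deg C. Beta-arrestin recruitment was read as luminescence after 1 h with detection reagent at ambient temperature.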
# D2 ag: Beta-Arrestin HTS for Positive Allosteric Modulators of the Human D2 Dopamine Receptor: Agonists; DiscoveRx PathHunter D2 beta-arrestin, luminescence, 90 min; 100% = 57 uM dopamine signal; activation, % (concentration not given with the values); hit rate 0.084% among 360,000; in the data active = activation above about 40%; inconclusive = about 15% to 40%; inactive = below about 15%; also: compound concentration not given in the record; the text of the record calls up to 30% inactive
#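 DiscoveRx PathHunter D2 beta-arrestin cells (2,100/well) attached overnight, then compound-stimulated 90 min at 37 C in HBSS/10 mM HEPES/0.1% Tween-20 buffer; beta-galactosidase complementation read by luminescence after 1 h at ambient temperature. Dopamine 57 uM final (EC100) as control.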
# Six1-Eya2 blk: qHTS Assay for Inhibitors of the Six1/Eya2 Interaction; AlphaScreen GST-Six1/His-Eya2 binding, biochemical; stronger effect = lower value; control for the full effect not named in the record; Homeobox protein SIX1 (Homo sapiens) + Protein phosphatase EYA2 (Homo sapiens), …; activity change, % (no concentration beside the values); hit rate 0.56% among 360,000; in the data active = activity change below about -65%; inconclusive = about -30% to -65%; inactive = above about -30%; also: % is scaled to controls: 0 for no effect and ±100 for the full control effect; compound concentration not given in the record
# Target sequence (O00167 whole entry, looked up): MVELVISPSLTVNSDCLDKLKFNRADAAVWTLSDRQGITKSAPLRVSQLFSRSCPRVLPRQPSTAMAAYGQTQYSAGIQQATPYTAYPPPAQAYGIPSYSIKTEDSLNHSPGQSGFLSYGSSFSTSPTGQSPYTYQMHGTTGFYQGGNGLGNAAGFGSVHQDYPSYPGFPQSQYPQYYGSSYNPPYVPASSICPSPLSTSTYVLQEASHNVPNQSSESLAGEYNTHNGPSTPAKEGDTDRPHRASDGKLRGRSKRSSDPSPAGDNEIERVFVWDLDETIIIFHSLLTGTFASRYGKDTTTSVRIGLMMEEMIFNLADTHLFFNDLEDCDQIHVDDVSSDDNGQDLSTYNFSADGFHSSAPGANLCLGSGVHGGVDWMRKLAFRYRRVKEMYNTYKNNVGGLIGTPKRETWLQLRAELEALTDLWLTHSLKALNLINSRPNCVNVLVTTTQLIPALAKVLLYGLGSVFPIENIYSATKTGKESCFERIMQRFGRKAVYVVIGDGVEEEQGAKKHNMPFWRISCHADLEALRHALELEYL
# Target sequence (Q15475 whole entry, looked up): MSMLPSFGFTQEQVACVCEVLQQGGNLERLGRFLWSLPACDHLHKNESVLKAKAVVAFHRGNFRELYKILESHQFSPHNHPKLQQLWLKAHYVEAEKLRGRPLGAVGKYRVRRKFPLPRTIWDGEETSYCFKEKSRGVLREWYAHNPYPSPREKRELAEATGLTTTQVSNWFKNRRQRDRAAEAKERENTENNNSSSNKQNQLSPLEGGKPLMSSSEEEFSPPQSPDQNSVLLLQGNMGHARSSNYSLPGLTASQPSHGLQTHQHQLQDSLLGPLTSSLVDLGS
#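 AlphaScreen luminescence read after one hour at 37 °C in darkness. Pin-transferred compounds met GST-Six1 and His-Eya2 protein (5X stock 250 nM/500 nM) plus glutathione donor and Ni-chelate acceptor beads (5X, 50 ug/mL).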
# CtBP-E1A blk: qHTS Assay for Inhibitors of the CtBP/E1A Interaction; CtBP / adenovirus E1A interaction (AlphaScreen); hit rate 0.49% among 340,000; AlphaScreen GST-E1A/His-CtBP binding, 1536-well; stronger effect = lower value; control for the full effect not named in the record; activity change, % (no concentration beside the values); AID 651724, 2012; in the data active means activity change below about -65%; inconclusive means about -30% to -65%; inactive means above about -30%; also: % is scaled to controls: 0 for no effect and ±100 for the full control effect; compound concentration not given in the record
#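 Homogeneous bead-based format: GST-tagged E1A captured on glutathione donor beads, His-tagged CtBP on nickel acceptor beads; compounds precede bead addition by 2 h at 37 °C.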
# gsp agonist: qHTS for Agonist of gsp, the Etiologic Mutation Responsible for Fibrous Dysplasia/McCune-Albright Syndrome: qHTS | gsp mutant cells, cAMP HTRF, 30 min; control for the full effect not named in the record | Potency, µM (doses to about 76.9 µM), without a hit: at the top dose activation (cAMP increase), most hits filed as activators | hit rate 0.13% among 340,000 | AID 624287, 2012; active = well fitted activation curve with a large enough effect; inconclusive = small, poorly fitted or top-dose-only effect, or another doubt; inactive = no such curve, though single readings can be large or run the other way; cell line not stated here;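 also: phosphodiesterase inhibitor Ro 20-1724 added with compounds to block cAMP breakdown; potency is read from the fitted curve at half-maximal effect; nearly all actives have a fitted effect of over 60% in size; about a fifth of the inactives were tested at one dose only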
#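 Cells stably selected in G418 were plated at 2000/well, grown 16-24 hr, then given compounds in DMSO with the PDE inhibitor […] (300 uM solution added) for 30 min at 37C; cAMP was read by HTRF.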
# gsp antag: qHTS for Antagonists of gsp, the Etiologic Mutation Responsible for Fibrous Dysplasia/McCune-Albright Syndrome: qHTS. Potency, µM (top dose mostly 76.9 µM), inactives show at the highest dose activity change, negative = inhibition, most hits filed as inhibitors. gsp-mutant cells, cAMP HTRF, 30 min; control for the full effect not named in the record. hit rate 0.4% among 340,000. AID 624288, 2012; active = falling curve of any shape with a large fitted effect; inconclusive = falling curve, mostly with a smaller effect; inactive = flat or rising curve; cell line not stated here;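 also: intracellular cAMP measured with PDE inhibitor Ro 20-1724 present during compound exposure; potency is read from the fitted curve at half-maximal effect; % is scaled to controls: 0 for no effect and ±100 for the full control effect; nearly all actives have a fitted effect of over 65% in size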
#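 HTRF cAMP measurement after 30 min RT detection following 30 min, 37C compound treatment alongside […] (added as 300 uM solution) in G418-selected cells seeded at 2000/well and grown 16–24 h.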
# The depositor's hits bear a star; ? = inconclusive; . = not tested or not shown; [ ] = remark or other dose.
SMILES,D2 potentiator,D2 ag,Six1-Eya2 blk,CtBP-E1A blk,gsp agonist,gsp antag
CCOc1ccc(C(=O)NCC(=O)OC(C)C(=O)NCc2ccco2)cc1OCC (centres undefined),6,-2.0,-15,-6,?,2%
COc1ccc(N(CC(=O)NCCSc2ccc(C)cc2)S(=O)(=O)c2ccccc2)c(OC)c1,10,-4.4,4,35,6%,-48%
CC(C(=O)NC1CC(C)(C)NC(C)(C)C1)c1ccc([N+](=O)[O-])cc1 (centres undefined),0,-7.3,5,-3,1%[15.4 µM],10%
O=C(CCc1c[nH]c2ccccc12)NCCc1ccccc1,-9,-3.2,-1,-2,-5%[15.4 µM],4%
Cc1cnc(NC(=O)CSc2nnc(-c3ccccc3)o2)s1,-14,2.1,3,-4,-10%,7%
O=C(CS(=O)(=O)Cc1ccccc1)N1CCN(Cc2ccc3c(c2)OCO3)CC1,-23,-1.7,-3,2,-20%,-4%
CCOC(=O)C1(Cc2ccccc2C)CCCN(S(C)(=O)=O)C1 (centres undefined),-4,-1.5,-1,9,-4%,5%
COc1ccc2nc(Sc3c([N+](=O)[O-])nc(C)n3Cc3ccccc3)[nH]c2c1,-13,-2.7,5,-10,-22%,-6%
COCCOc1nc2c(c(=O)n(C)c(=O)n2C)n1Cc1cccc(OC)c1,1,0.2,-5,10,-1%,-2%
CCn1c(C)c(C(C)=O)c(N2CCN(c3ccc(OC)cc3)CC2)nc1=S,-5,0.4,0,-14,1%,2%
CSc1nc(-c2ccccc2)nn1C(=O)c1ccccc1,-22,-3.5,0,8,-1%,-2%
Nc1nc(-c2ccco2)nn1C(=O)c1ccc([N+](=O)[O-])cc1,-9,0.2,10,0,9%,10%
O=C1OC(OC(=O)c2ccccc2Br)C(N2CCOCC2)=C1Cl (centres undefined),-22,-6.1,7,8,-3%,-6%
O=[N+]([O-])c1ccc(COc2ccc(-c3[nH]ncc3-c3ccccc3)c(O)c2)cc1,27,7.0,-12,-6,-10%,-1%
Cc1nn(-c2ccc(Cl)c(Cl)c2Cl)c(=O)c2ccccc12,-3,2.3,-4,0,-38%[inhibitor],-27%
CCOc1cc(C2C(C(=O)OC)=CN(Cc3ccc(Cl)cc3)C=C2C(=O)OC)ccc1O,-24,7.4,5,.,-46%,1%
CCCC(=O)C1=C(O)C(C(=O)OC)C(C)(C)CC1=NCCCCCC(=O)O (centres undefined),-7,-1.4,6,.,-5%,-13%
CC(C)(C)NC(=O)C(c1ccco1)N(C(=O)Cn1nnc(-c2ccc(F)cc2)n1)c1ccccc1 (centres undefined),-6,-2.7,0,6,19%,-7%
COc1ccccc1COc1ccc2c(C)c(CCC(=O)O)c(=O)oc2c1C,2,3.0,-9,-1,-1%[15.4 µM],?
COc1ccc(C2(CNC(=O)C(c3ccccc3)c3ccccc3)CCOCC2)cc1OC,1,1.2,0,7,21%,-8%
CC1(C)Cc2c(C#N)c(SCCC#N)nc(N3CCOCC3)c2CS1,8,-0.9,-6,-8,21%,-6%
COc1ccc(C(=O)NCCC2=CCCCC2)cc1,-24,-6.4,3,1,-13%,10%
COc1ccc(CS(=O)(=O)CC(C)(O)c2ccc(Cl)cc2)cc1 (centres undefined),-12,-1.4,0,-15,-31%[inhibitor],-4%
C=CC[C@H](CC(=O)N(CCO)Cc1ccccc1)C(=O)N[C@H](C)COC(=O)[C@@H](CC=C)CC(=O)OC(C)(C)C,-6,-0.1,-3,.,?,2%
COc1ccc(C(=O)NCc2nnc(SCC(=O)NO)n2Cc2ccccc2)cc1,-6,2.0,6,10,?,3%

# An excerpt from above, showing only D2 ag and Six1-Eya2 blk.
SMILES | D2 ag | Six1-Eya2 blk
Cc1nn(-c2ccc(Cl)c(Cl)c2Cl)c(=O)c2ccccc12 | 2.3 | -4
CCOc1cc(C2C(C(=O)OC)=CN(Cc3ccc(Cl)cc3)C=C2C(=O)OC)ccc1O | 7.4 | 5
C=CC[C@H](CC(=O)N(CCO)Cc1ccccc1)C(=O)N[C@H](C)COC(=O)[C@@H](CC=C)CC(=O)OC(C)(C)C | -0.1 | -3

# New compounds follow.
SMILES,D2 potentiator,D2 ag,Six1-Eya2 blk,CtBP-E1A blk,gsp agonist,gsp antag
Cc1ccc(C2=NN(CC(=O)NCCN(CC(C)C)CC(C)C)C(=O)CC2)cc1,-7,5.5,9,2,16%,12%
O=C(CS(=O)(=O)c1ccccc1)Nc1ccc(Br)cn1,-15,-4.2,14,19,-21%,5%
CC(=O)Nc1ccc(-c2cc(N)n(-c3ccccc3)n2)cc1,0,0.4,-11,3,3%[15.4 µM],9%
COc1ccc(N2CCN(CCCNC(=O)c3cc4sccc4n3C)CC2)cc1,-22,4.4,?,?,-56%[inhibitor],4%
COc1ccc(NC(=O)c2cc3ccccc3o2)cn1,0,-1.5,4,1,-23%,-4%
COc1ccc(CCNC(=O)COC(=O)C2=NNC(=O)CC2)cc1,-15,-1.5,7,-8,-91%,.
Cc1cc(C(=O)NC(C)c2ccc3c(c2)OCO3)cs1 (centres undefined),1,1.8,1,1,-22%,6%
COc1cccc(CN2CCNC(=O)C2CC(=O)N(C)CCC2CCOCC2)c1 (centres undefined),-2,-1.5,-14,2,0%,1%
CCCCCCc1cc2cc(C(=O)Nc3ccccc3OC)c(=O)oc2cc1O,19,2.2,9,2,-9%[15.4 µM],15%
CCOc1ccc(/C=N/NC(=O)CN2CCCCCCC2)cc1,-9,-2.8,-13,16,-14%,8%
O=C(Nc1cccc([N+](=O)[O-])c1)c1ccc2nsnc2c1,-28,-1.8,-8,-24,26%,-1%
O=C1NN=C(c2ccccc2)C1Cc1ccccc1 (centres undefined),15,1.9,-3,4,-49%[inhibitor],11%
CCN(CC)S(=O)(=O)c1cc([N+](=O)[O-])ccc1NNC(=O)Nc1ccc(F)cc1,?,6.0,-11,-20,11%,50µM*
O=C(NC(=S)Nc1ccccc1O)c1ccc(Cl)cc1Cl,-8,-6.5,-2,-9,8%,-13%
Cc1cc(Cl)ccc1OCC(=O)OCC(=O)N(CC(C)C)c1c(N)n(Cc2ccccc2)c(=O)[nH]c1=O,0,-5.8,6,-8,2%[15.4 µM],4%
CSCCC(NC(=O)c1ccccc1Br)C(=O)NCC1CCCCC1 (centres undefined),-3,-4.1,1,-20,0%,3%
Cc1ccc2nc(-c3cccs3)oc(=O)c2c1,-26,-5.6,5,2,-6%[15.4 µM],-37%
COCCN1C(=O)C(=O)/C(=C(/O)c2ccc3c(c2)OCCO3)C1c1ccc(C(=O)OC)cc1 (centres undefined),-25,-0.2,13,1,18%,11%
CCOC(=O)C1=C(COC(=O)c2ccc(Br)c(S(=O)(=O)N3CCOCC3)c2)NC(=O)NC1C (centres undefined),-2,3.8,-2,-15,14%,4%
CC(C)CC1Nc2ccc(C(=O)NCc3ccc4c(c3)OCO4)cc2NC1=O (centres undefined),-1,0.0,5,0,8%,-13%
OCC1OC(O)CC(O)C1O (centres undefined),7,3.4,1,4,.,15%
Nc1ccccc1C(=O)NCc1ccc(F)cc1,-2,2.2,0,6,-2%,11%
CC(=O)c1sc(C(C)(C)C)cc1NC(=O)/C=C/C(=O)O,-6,-2.8,0,-8,2%,-15%
O=[N+]([O-])c1ccccc1Nc1ccc(O)cc1,-8,-4.8,?,?,4%[15.4 µM],10%
CCOc1cccc2sc(N3CCN(C(=O)c4ccc5ncsc5c4)CC3)nc12,1,5.6,1,-14,12%,-26%

# Later entries:
SMILES,D2 potentiator,D2 ag,Six1-Eya2 blk,CtBP-E1A blk,gsp agonist,gsp antag
CC1(C)CC(=O)C2=C(C1)NC(SCC(=O)Nc1ccccc1)=C(C#N)C21CCCCC1,-12,2.7,-1,0,-29%,-18%
CC(=O)c1ccc(C(=O)Nc2ccc3c(c2)C(=O)NC3=O)cc1,-10,-4.1,-11,-2,8%,0%
O=C(c1ccccc1NS(=O)(=O)c1ccc([N+](=O)[O-])cc1[N+](=O)[O-])N1O[C@@H]2C=C[C@H]1C2,.,?,-14,-2,.,-2%
O=C(COc1ccccc1)NCC(=O)N/N=C/c1ccco1,-3,-0.3,-12,14,4%,8%
CC(=O)c1ccc(NC(=O)c2c(C)nn(-c3ccccc3)c2Cl)cc1,-15,1.8,-1,5,-2%[15.4 µM],-13%
COc1ccccc1NC(=O)CC1CCCC1,-3,-1.9,0,9,1%,5%
CCN(CC)c1ccc(NC(=O)c2ccccn2)cc1S(=O)(=O)Nc1ccccc1OC,9,-4.0,?,-22,-12%,1%
CCC(C)n1c(SCc2ccccc2)nc2ccsc2c1=O (centres undefined),-9,-2.8,24,38,-33%[inhibitor],-6%
O=C(/C=C/[C@H]1O[C@@H](n2ccc(=O)[nH]c2=O)[C@H](O)[C@@H]1O)NCc1cccs1,-4,-4.1,4,7,.,.
CCOc1ccc(C(=O)NCC(=O)Nc2ccc3c(c2)OCO3)cc1OCC,-35,5.3,-13,-3,-4%,-3%
O=C(Cn1cc2c(n1)CCCC2)N1CCCC1,-1,-1.9,3,2,5%,9%
CCc1ccc(C2=NN(CCC(=O)NC3CCCCCC3)C(=O)CC2)cc1,-9,4.1,3,.,-6%,5%
CC1CC2=C(NC(=S)NC2c2ccc(F)cc2)/C(=C/c2ccc(F)cc2)C1 (centres undefined),-17,-2.6,-5,-12,-13%,-5%
CC(OC(=O)c1ccc2c(c1)OCO2)C(=O)NC1CCCCC1C (centres undefined),-5,-3.9,3,-3,-45%,-2%
Cc1ccc(C)c2[nH]c(=O)c(CCNC(=O)C(C)(C)C)cc12,-1,-0.5,3,6,-19%,11%
COc1ccc2c(c1)C(=O)CCC2c1ccccc1 (centres undefined),1,0.9,26,21,-25%,-11%
O=C(NCCc1ccc(Cl)cc1)C1CCC(CNc2c(N3CCCCC3)c(=O)c2=O)CC1 (centres undefined),-7,6.6,2,-1,22%,-18%
O=S(=O)(c1ccc(Cl)cc1)N1CCN(C(=S)Nc2ccccc2F)CC1,-3,-3.4,-4,1,-20%,-5%
Cc1ccc2sc(N(CCCN(C)C)C(=O)c3ccc(S(=O)(=O)N(C)C4CCCCC4)cc3)nc2c1C,-49,-5.4,?,-30,21%,6%

# Quoted at random: 3 records from the list, in no set order.
SMILES,D2 potentiator,D2 ag,Six1-Eya2 blk,CtBP-E1A blk,gsp agonist,gsp antag
Nc1nc(-c2ccco2)nn1C(=O)c1ccc([N+](=O)[O-])cc1,-9,0.2,10,0,9%,10%
Cc1cnc(NC(=O)CSc2nnc(-c3ccccc3)o2)s1,-14,2.1,3,-4,-10%,7%
CCOC(=O)C1(Cc2ccccc2C)CCCN(S(C)(=O)=O)C1 (centres undefined),-4,-1.5,-1,9,-4%,5%
